From PubChem BioAssay
NS1 inh = blocks influenza NS1 protein function | S. cerevisiae slowed by influenza A NS1, growth recovery by OD600 | Potency, µM (top dose mostly 46.1 µM), inactives show top-dose activity, positive = more growth | actives 0.4% (n = 270,000); active means well fitted rising curve with a large enough effect; inconclusive means small, poorly fitted or top-dose-only effect; inactive means no such curve, though single readings can be large or run the other way; note: nearly all actives have a fitted effect of over 50% in size
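In this qHTS, NS1 from influenza A is expressed in budding yeast, where it slows growth. Cells are switched from glucose to 2% galactose medium (pH 6.0, -URA), treated with compound, and growth recovery is read at OD600.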
RE007 growth inh = less growth of the S. pombe RE007 Vpr strain; S. pombe RE007 Vpr strain, BacTiter-Glo ATP luminescence, 24 h; control for the full effect not named in the record; Potency, µM (series often up to 92.2 µM), without a hit: top-dose activity change, negative = less growth; actives 0.21% (n = 360,000); active = well fitted falling curve with a large enough effect; inconclusive = small, poorly fitted or top-dose-only effect; inactive = no such curve, though single readings can be large or run the other way;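 note: % is set by controls: 0 for no effect and ±100 for the full control effect; nearly all actives have a fitted effect of over 50% in size; the assay follows cell death caused by Vpr and the record does not say whether a fall means rescue or toxicity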
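Fission yeast RE007 carrying one integrated HIV-1 vpr copy, seeded at OD 0.01 in PMG+AL medium with 23 nL pinned compound. Grown 24 h at 30 degrees; viability read by BacTiter-Glo luminescence after 5 min.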
StopGo reporter = lowers the luciferase signal of an FMDV 2A StopGo reporter; human cells with a luciferase reporter of 2A StopGo recoding; control for the full effect not named in the record; Potency, µM (series often up to 57.9 µM), inactives show at the highest dose signal change, negative = less light; actives 1.2% (n = 410,000); AID 1159524; active = well fitted falling curve with a large enough effect; inconclusive = small, poorly fitted or top-dose-only effect; inactive = no such curve, though single readings can be large or run the other way; tested in HEK293T cells; note: % is set by controls: 0 for no effect and ±100 for the full control effect; nearly all actives have a fitted effect of over 45% in size; luciferase light after 4 h
Cruzain inh noDet = blocks cruzain activity in detergent-free assay; P25779; purified cruzain, Z-FR-AMC fluorescence, no detergent; Potency, µM, without a hit: max response, negative = inhibition, most hits filed as inhibitors; actives 2.3% (n = 200,000);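 note: plate controls were enzyme without inhibitor for no effect and buffer without enzyme for full effect; nearly all actives have a fitted effect of over 40% in size; top concentration of the series not given in the record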
Target sequence (P25779 123-467 limits assumed): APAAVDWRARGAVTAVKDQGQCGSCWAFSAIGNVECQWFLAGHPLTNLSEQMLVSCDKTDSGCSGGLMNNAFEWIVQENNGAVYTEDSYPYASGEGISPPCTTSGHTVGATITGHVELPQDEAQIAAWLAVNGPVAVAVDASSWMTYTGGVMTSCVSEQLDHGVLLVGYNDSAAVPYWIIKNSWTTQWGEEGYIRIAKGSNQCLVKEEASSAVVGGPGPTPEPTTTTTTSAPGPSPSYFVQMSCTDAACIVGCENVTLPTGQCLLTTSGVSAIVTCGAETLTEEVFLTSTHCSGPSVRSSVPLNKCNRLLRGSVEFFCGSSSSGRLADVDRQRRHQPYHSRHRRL
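Detergent-free condition (0.00005% Triton X-100) in acetate buffer pH 5.5 with DTT. 1.5 nM enzyme and compound were pre-mixed 15 min, then 2 uM Z-FR-AMC substrate added; reaction progress from fluorescence change between first and third reads (60 s).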
Marburg entry inh = inhibitors of Marburg virus binding or cell entry; Marburg virus pseudotyped entry inhibition, cell reporter; control for the full effect not named in the record; about a third of the inactives were read at about 46 µM; actives 1.8% (n = 300,000); Potency, µM (titrated, usually from 37.8 µM), inactives show top-dose activity change, negative = inhibition, actives largely listed as inhibitors; active = well fitted inhibition curve with a large enough effect; inconclusive = small, poorly fitted or top-dose-only effect, or effect the other way; inactive = flat fitted curve, though single readings scatter; tested in HEK293 cells; about a fifth of its hits are not listed in these tables; note: % is set by controls: 0 for no effect and ±100 for the full control effect; luciferase read-out
LASV entry inh = Lassa virus entry inhibition. Lassa virus pseudotype entry inhibition, cell reporter; control for the full effect not named in the record. Potency, µM (top dose mostly 37.9 µM), without a hit: at the top dose activity change, negative = inhibition, usual class: inhibitors. actives 1.2% (n = 300,000); active means well fitted inhibition curve with a large enough effect; inconclusive means small, poorly fitted or top-dose-only effect, or effect the other way; inactive means flat fitted curve, though single readings scatter; tested in HEK293 cells; note: % is set by controls: 0 for no effect and ±100 for the full control effect; nearly all actives have a fitted effect of over 50% in size; luciferase read-out
SARS PLpro yeast = inhibitors of SARS-CoV papain-like protease in yeast | Potency, µM (titrated, usually from 32.9 µM), for the others: at the top dose activity, positive = growth rescue | S. cerevisiae expressing SARS-CoV PLpro, growth rescue; control for the full effect not named in the record | actives 0.19% (n = 330,000) | AID 485353; active means well fitted rising curve with a large enough effect; inconclusive means small, poorly fitted or top-dose-only effect; inactive means no such curve, though single readings can be large or run the other way; note: 0% is about no effect; nearly all actives have a fitted effect of over 55% in size; growth read by luminescence after 48 h
Cruzain Triton = cruzain (T. cruzi) inhibition with detergent; actives 0.43% (n = 200,000); Potency, µM, without a hit: max response, negative = inhibition, most hits filed as inhibitors; purified cruzain, Z-FR-AMC fluorescence, 0.01% Triton;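 note: plate controls were neutral wells for no effect and buffer without enzyme for full effect; nearly all actives have a fitted effect of over 40% in size; top concentration of the series not given in the record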
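Read-out: AMC fluorescence (360 nm excitation, 450 nm emission), four reads over 2 min, first-to-third difference used. Conditions: cruzain 1.5 nM, Z-FR-AMC 2 uM, pH 5.5 acetate, 5 mM DTT, 0.01% Triton X-100.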
* = called active by the depositor; ? = inconclusive; . = not tested or not shown; & = joins results of further samples; [ ] = another dose, or the depositor's remark. Unless noted, calls come from the whole dose curve; as a rule, active = well fitted curve in the direction sought with a large enough effect; inconclusive = small, poorly fitted or top-dose-only effect, or another doubt; inactive = no such curve, though single readings can be large; an effect the other way counts as inactive or inconclusive. Potency is the fitted concentration of half-maximal effect.

SMILES	NS1 inh	RE007 growth inh	StopGo reporter	Cruzain inh noDet	Marburg entry inh	LASV entry inh	SARS PLpro yeast	Cruzain Triton
CC1CN(C(=O)C(C)Sc2nc3ccccc3s2)CC(C)O1 (stereo not drawn)	2%	0%	4%	-1%	7%	?	-5%	-4.2%
CC(C)CC(COCc1ccc(Cl)cc1)N1CCN(C(=O)c2cccc(C(F)(F)F)c2)CCC1=O (stereo not drawn)	-23%	-14%	-17%	?	-22%	?	1%	-7.1%
COc1ccc(Cl)cc1NC(=O)c1nnn(CC(=O)Nc2ccc3c(c2)OCO3)c1N	-6%	-12%	-14%	.	.	.	-5%	.
CC(C)c1ccc(N(CC(=O)NCc2ccc(F)cc2)C(=O)c2csnn2)cc1	2%	-9%	-8%	.	.	.	0%	.
COc1cccc(NC(=O)CSc2nc3c(c(-c4ccco4)c2C#N)CCCC3)c1	18%	-1%	13%	6.3µM*	-7%	39%[14.3 µM]	2%	5.9%
Fc1ccc2nc(Nc3nc4c(F)cccc4s3)sc2c1	-1%	-12%	-29%	?	-7%	3%	.	4.5%
CSc1ccccc1NC(=O)COC(=O)c1ccc(-n2nc(C)cc2C)cc1	.	-14%	-19%	.	22%	-1%	-1%	.
C/C(=N\NC(=O)c1ccc(CSc2nc(C)cc(C)n2)cc1)c1ccco1	15%	4%	19%	.	?	1%	-1%	.
Cn1c(NC(=O)C2c3ccccc3Oc3ccccc32)cc(=O)n(C)c1=O	-2%	13%	-20%	0%	-6%	11%	-17%	-8.8%
Cc1ccc(C2=NN=C(NC(=O)CSc3nnc4c5ccccc5n(C)c4n3)SC2)cc1	6%	56%	9%	-7%	?	?	-82%	-22%
CCOc1ccc(N2CC(C(=O)NCCCN3CCOCC3)CC2=O)cc1 (stereo not drawn)	-12%	10%	-14%	-4%	3%	9%	9%	3.2%
Cc1cc(=O)n(C)c(=O)n1CCCCOc1ccc([N+](=O)[O-])cc1	2%	-2%	?	.	-24%[46.1 µM]	-10%	0%	.
O=C(OCC(=O)N1CCN(c2ccccc2)CC1)c1ccc[n+]([O-])c1	14%	0%	2%	.	14%[46.1 µM]	10%	0%	.
CCC(=O)Nc1ccc(C(=O)Nc2cccc(OC)c2)cc1	-5%	15%	15%	0%	47%	-2%	11%	1.5%
O=C(CCS(=O)(=O)c1ccc(Br)cc1)NCc1ccco1	7%	5%	-1%	.	.	.	-4%	.
C/C(CC(=O)Nc1ccc(Br)cc1)=N\NC(=O)c1cccc(O)c1	25%	-16%	-4%	.	.	.	1%	.
O=C(Nc1cccc(/C=C/c2nc3ccccc3c(=O)[nH]2)c1)c1ccccc1Cl	-1%	-8%	12%	.	.	.	-2%	.
CCOc1ccc(S(=O)(=O)N(CC)CC)cc1NC(=O)CSCc1c(C)noc1C	.	-4%	-8%	.	-23%	?	1%	.
O=C(NCCCn1ccnc1)c1cccc(S(=O)(=O)NCc2ccccc2)c1	.	-5%	22%	.	?	15%	-1%	.
Cc1nc(N)sc1-c1csc(Nc2ccccc2)n1	16%	-27%	12%	13µM*	?	0%	-2%	25µM*

Compound profiles (already shown).
O=C(CCS(=O)(=O)c1ccc(Br)cc1)NCc1ccco1 is entered as NS1 inh: 7%; RE007 growth inh: 5%; StopGo reporter: -1%; Cruzain inh noDet: .; Marburg entry inh: .; LASV entry inh: .; SARS PLpro yeast: -4%; Cruzain Triton: .
Cc1cc(=O)n(C)c(=O)n1CCCCOc1ccc([N+](=O)[O-])cc1 is entered as NS1 inh: 2%; RE007 growth inh: -2%; StopGo reporter: ?; Cruzain inh noDet: .; Marburg entry inh: -24%[46.1 µM]; LASV entry inh: -10%; SARS PLpro yeast: 0%; Cruzain Triton: .
Cc1nc(N)sc1-c1csc(Nc2ccccc2)n1 is entered as NS1 inh: 16%; RE007 growth inh: -27%; StopGo reporter: 12%; Cruzain inh noDet: 13µM*; Marburg entry inh: ?; LASV entry inh: 0%; SARS PLpro yeast: -2%; Cruzain Triton: 25µM*

Additional results follow:
SMILES	NS1 inh	RE007 growth inh	StopGo reporter	Cruzain inh noDet	Marburg entry inh	LASV entry inh	SARS PLpro yeast	Cruzain Triton
CCCCC(CCC(=O)Nc1ccc(C(=O)OCC)cc1)C(=O)O (stereo not drawn)	3%	-2%	0%	7%	2%	5%	13%	-0.2%
CC(=O)C(Sc1nc(N2CCOCC2)nc(N2CCOCC2)n1)C(=O)Nc1ccccc1 (stereo not drawn)	-49%	7%	-18%	?	-25%[46.1 µM]	1%	-2%	-7.7%
CCOC(=O)c1sc(NNC(=O)c2ccc(C)cc2)nc1C	8%	18%	26%	.	-12%[46.1 µM]	-27%	2%	.
COc1ccc(N2CC(C(=O)Nc3ccncc3)CC2=O)cc1 (stereo not drawn)	3%	1%	23%	.	6%[46.1 µM]	-2%[46.1 µM]	1%	.
CN1/C(=C\C(=S)NC(=O)c2cccc(Br)c2)C(C)(C)c2ccccc21	26%	.	?	?	?	-1%	10%	3.5µM*
COc1ccc(-c2nc3nc(SC)nn3cc2C)cc1F	3%	31%	-12%	.	-2%[46.1 µM]	-23%	1%	.
O=C(NCc1ccc2c(c1)OCO2)C1CC(c2cccc(Br)c2)=NO1 (stereo not drawn)	-48%	-18%	-14%	4%	0%[46.1 µM]	-6%	0%	-1.0%
CCCC(=O)Nc1cc(-c2nnc3c4ccccc4c(C)nn23)ccc1C	.	.	-19%	11%	9%[46.1 µM]	-2%[46.1 µM]	.	-0.3%
O=C(Nc1ccc(Cl)cc1[N+](=O)[O-])c1ccc2c(c1)OCCO2	6%	4%	55%	.	-28%	2%	13%	.
O=C(CCS(=O)(=O)c1ccccc1)NC1CCCCC1	2%	8%	10%	.	?	3%[46.1 µM]	-5%	.

A few values from above:
C/C(=N\NC(=O)c1ccc(CSc2nc(C)cc(C)n2)cc1)c1ccco1 in StopGo reporter is entered as 19%
O=C(CCS(=O)(=O)c1ccccc1)NC1CCCCC1 in RE007 growth inh is entered as 8%
CN1/C(=C\C(=S)NC(=O)c2cccc(Br)c2)C(C)(C)c2ccccc21 in LASV entry inh is entered as -1%
O=C(CCS(=O)(=O)c1ccc(Br)cc1)NCc1ccco1 in SARS PLpro yeast is entered as -4%

More compounds:
SMILES	NS1 inh	RE007 growth inh	StopGo reporter	Cruzain inh noDet	Marburg entry inh	LASV entry inh	SARS PLpro yeast	Cruzain Triton
Cc1ccc(Cn2c(=O)n(Cc3ccccc3Cl)c(=O)c3cccnc32)cc1	.	.	-14%	17%	10%[46.1 µM]	.	.	0.3%
O=C(Nc1ccc(C(=O)N2CCOCC2)cc1)c1cccc(Br)c1	1%	-1%	26%	.	?	?	-4%	.
COc1ccccc1NS(=O)(=O)c1cccc(C(=O)N/N=C/c2c(C)nn(-c3ccccc3)c2N2CCCC2)c1	11µM*	1%	0%	-13%	?	?	5%	-3.9%
CC(=O)NC1C(=O)Nc2c(C)cc(C)cc21 (stereo not drawn)	2%	3%	11%	-6%	0%	9%	-2%	8.9%
Cc1nc2ccc(S(=O)(=O)NCC(=O)N3CCOCC3)cc2s1	1%	4%	27%	-6%	18%	9%	-2%	1.0%
CCC(=O)Nc1ccccc1-c1nnn(CC(=O)N2c3ccccc3CC2C)n1 (stereo not drawn)	-2%	0%	.	-5%	-9%	-17%	8%	-3.8%
COc1ccccc1OCC(=O)Nc1ccccc1C(=O)N1CCCCC1	11%	10%	-8%	.	26%	3%	-1%	.
CCOC(=O)COc1ccc(S(=O)(=O)N2CCN(c3ccccc3F)CC2)cc1	-168%	7%	.	1%	5%	5%	?	-2.0%
CCOc1ccc(C(=O)NCCCN(CC)CC)cc1	8%	12%	2%	0%	14%	-2%	-13%	4.7%
O=C(NC1CC1)c1nc(Cn2cc([N+](=O)[O-])cn2)no1	3%	-10%	9%	.	.	.	5%	.
N#Cc1ccc(OCC(=O)NCC(c2cccs2)N2CCOCC2)cc1 (stereo not drawn)	3%	8%	-15%	.	.	.	-4%	.
CC1=CC(=O)CC2C1(C)CCC(C)C2(C)CCC(C)CC(=O)O (stereo not drawn)	5%	-14%	-17%	.	.	.	4%	.
COC(=O)[C@H](C)NC(=O)NCc1ccc(S(N)(=O)=O)cc1	0%	1%	-4%	.	12%	4%	0%	.
COc1cccc2cc(C(=O)CS(=O)(=O)c3ccc(C(C)(C)C)cc3)c(=O)oc12	13%	4%	-10%	.	.	.	0%	.
Cc1ccccc1C(=O)Oc1cc(N)n(S(=O)(=O)c2ccccc2)n1	.	2%	-9%	.	-4%	4%	-2%	.
CCCCc1nc2cc(C(=O)N3CCC(OCCOC)CC3)ccc2o1	2%	-1%	14%	.	?	9%[46.1 µM]	1%	.
O=c1[nH]n2cc(-n3cc([N+](=O)[O-])cn3)cnc2c1Br	.	7%	-14%	.	-23%	2%	1%	.
CC(C)=CCC1=C(OCC(=O)O)C(=O)c2ccccc2C1=O	-17%&-38%	?	?	-20%	.	.	-2%	4.8%
CCOC(=O)CSc1nnc(NC(=O)c2ccc3c(c2)OCO3)s1	12%	1%	-23%	.	?	?	-5%	.
COc1ccccc1N1CCN(c2nc(N)c(C#N)c(CC#N)c2C#N)CC1	2%	3%	?	-29%	-24%	3%	0%	-6.3%
COc1ccc(C(=O)Nc2cccc(S(=O)(=O)NCc3ccco3)c2)cc1	.	-11%	5%	.	-18%	-11%	7%	.
CCOC(=O)N1CCN(C(=O)COC(=O)c2cc(C)ccc2C)CC1	.	15%	-4%	.	-7%[46.1 µM]	?	0%	.
COc1ccccc1NC(=S)N1CCN(c2ccc(F)cc2)CC1	6%	-4%	-4%	.	.	.	-6%	.
CCOc1ccc2[nH]c(=O)c(C(c3nnnn3CC3CCCO3)N3CCc4ccccc4C3)cc2c1 (stereo not drawn)	-2%	8%	3%	?	-45%&-45%	-3%	?	-5.6%
CCOC(=O)c1ccc(NC(=O)C23CCC(C)(C(=O)O2)C3(C)C)cc1 (stereo not drawn)	-1%	-11%	15%	9%	?	?	-2%	-4.0%
CCOc1ccc(-c2nc(-c3ccccc3C)no2)cc1	-6%	.	.	-8%	0%	.	-5%	-0.3%
